PG9 binder: binders of HIV-1 gp120 antibody PG9, primary screen, biochemical, TR-FRET; actives 0.43% (n = 360,000); AID 624416, 2012; inhibition, % at 6.7 µM; TR-FRET gp120-PG9 antibody binding; HIV-1 gp120 / PG9 antibody interaction; in the data active means inhibition above about 8.5%
LEDGF integ inh: blockers of LEDGF/p75-dependent integrase strand transfer – biochemical, TR-FRET, high throughput, primary screen | HIV-1 integrase (with human LEDGF/p75) | TR-FRET IN-LEDGF/p75 DNA integration, Eu/Cy5 | inhibition, % at 3.7 µM | actives 0.64% (n = 370,000) | AID 743269, 2014;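 active means inhibition above the screen-wide mean plus 3 SD, cut at about 13% in these data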;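 further: signal is the Cy5 over europium emission ratio at 671 and 618 nm; 0% = plate median of compound wells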
PRMT1 FP inh: PRMT1 methyltransferase inhibitors, primary screen, biochemical, fluorescence polarization. recombinant PRMT1, activity-based probe fluorescence polarization. inhibition, % at 2.79 µM. actives 1.3% (n = 370,000);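 active means inhibition above about 21% made by adding two undisclosed values, limit read from the data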
Target sequence (Q99873 whole entry, looked up): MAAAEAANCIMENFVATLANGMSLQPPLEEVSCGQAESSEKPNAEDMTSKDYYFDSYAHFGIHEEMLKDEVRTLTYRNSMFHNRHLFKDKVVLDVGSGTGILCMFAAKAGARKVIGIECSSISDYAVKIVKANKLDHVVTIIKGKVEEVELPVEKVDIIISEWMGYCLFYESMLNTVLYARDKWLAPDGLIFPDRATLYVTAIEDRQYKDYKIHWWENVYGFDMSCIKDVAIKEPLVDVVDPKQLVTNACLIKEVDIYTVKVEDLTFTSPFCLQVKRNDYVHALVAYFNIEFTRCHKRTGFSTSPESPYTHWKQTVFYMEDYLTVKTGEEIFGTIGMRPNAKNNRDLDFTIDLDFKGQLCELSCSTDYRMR
ABHD4 inh: ABHD4 inhibitors, primary screen, biochemical, fluorescence polarization, mouse; (Lyso)-N-acylphosphatidylethanolamine lipase (Mus musculus), Q8VD66; purified mABHD4, FP-Rh probe fluorescence polarization; inhibition, % at 8.92 µM; actives 0.54% (n = 370,000); AID 720543, 2013;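 active means inhibition exceeding the mean over every tested compound plus 3 SD, cut at about 30% in these data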;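 further: 0% = plate median of compound wells and 100% = S159A mutant with DMSO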
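Assay system: Wild-type mouse ABHD4 protein | Medium: HEPES pH 7.0 buffer, 150 mM NaCl, 0.01% Pluronic F-127 | Incubation: Enzyme–compound pre-incubation 45 min, then probe 60 min, both 25 °C | Technique: Fluorescence polarization with parallel and perpendicular emission, 525/598 nm | Evaluation: % inhibition of FP-Rh probe binding versus controls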
Rev-erbA mod: modulators of Rev-erb alpha DNA binding, primary screen, biochemical, FITC-DNA, fluorescence polarization, uHTS. Nuclear receptor subfamily 1 group D member 1 (Homo sapiens), P20393. Rev-erbα–FITC-DNA binding, 90 min. activity, % at 10 µM. actives 0.79% (n = 370,000);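 active means activity above about 14%, limit read from the data; passing the limit was not always enough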;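 further: 0% = DMSO wells with 35 nM protein and 100% = DMSO wells with 750 nM protein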
Target sequence (P20393 whole entry, looked up): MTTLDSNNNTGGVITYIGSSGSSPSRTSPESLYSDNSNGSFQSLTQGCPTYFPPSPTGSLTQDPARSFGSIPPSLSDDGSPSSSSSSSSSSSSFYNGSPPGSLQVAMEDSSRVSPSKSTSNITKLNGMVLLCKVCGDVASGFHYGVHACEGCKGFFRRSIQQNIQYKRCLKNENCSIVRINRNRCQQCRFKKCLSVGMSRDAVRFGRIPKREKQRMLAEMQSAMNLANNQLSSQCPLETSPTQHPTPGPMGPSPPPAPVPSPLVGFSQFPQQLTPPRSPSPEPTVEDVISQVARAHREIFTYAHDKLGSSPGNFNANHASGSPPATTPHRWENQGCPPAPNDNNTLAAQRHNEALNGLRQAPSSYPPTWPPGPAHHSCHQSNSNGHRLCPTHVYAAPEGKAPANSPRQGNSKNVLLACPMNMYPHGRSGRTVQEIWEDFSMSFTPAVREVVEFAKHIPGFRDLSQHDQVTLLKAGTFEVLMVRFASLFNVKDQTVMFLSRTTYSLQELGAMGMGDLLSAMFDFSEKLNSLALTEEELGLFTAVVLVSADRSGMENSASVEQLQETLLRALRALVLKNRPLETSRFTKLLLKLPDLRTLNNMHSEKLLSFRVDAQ
UHRF1 MBD2 ctr: UHRF1 methylated DNA binding inhibitors, primary screen, counter-screen for MBD2 inhibitor project, biochemical, TR-FRET, human UHRF1, single concentration; E3 ubiquitin-protein ligase UHRF1 (Homo sapiens), Q96T88; UHRF1 binding to methylated oligo; inhibition, % at 4.4 µM; actives 0.75% (n = 370,000); AID 687016, 2013; in the data active means inhibition above about 21%;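 further: UHRF1 SRA domain binding a hemimethylated CpG hairpin DNA probe; 0% = median of test compound wells and 100% = reference inhibitor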
rCAG RNA binder: binders of r(CAG) RNA repeats, primary screen, biochemical, fluorescence; AID 651821, 2012; actives 1.3% (n = 370,000); r(CAG) RNA repeat, TO-PRO-1 dye displacement fluorescence; inhibition, % at 3 µM;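 active means inhibition above the plate cutoff, the mean of all test compounds on that plate plus 3 SD, cut at about 35% in these data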;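 further: 0% = DMSO alone and 100% = 100 µM mitoxantrone as full dye displacement; higher means more dye released from RNA so lower well fluorescence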
MBD2 inh: inhibitors of MBD2 binding to methylated DNA, primary screen, biochemical, TR-FRET, DNA-binding domain, human; Methyl-CpG-binding domain protein 2 (Homo sapiens), Q9UBB5; MBD2 binding to methylated oligonucleotide; inhibition, % at 4.4 µM; actives 0.31% (n = 370,000); AID 686964, 2013; in the data active means inhibition above about 13%
TCR CD3 inh: inhibitors of human TCR-CD3 interaction, primary screen, biochemical, fluorescence, TAMRA-labeled TCR probe | AID 651800, 2012 | inhibition, % at 9.4 µM | actives 0.37% (n = 360,000); in the data active means inhibition above about 19%;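 further: recombinant mutant TCR 2C K166C tagged with TAMRA read by polarization; 0% = receptor in buffer alone and 100% = receptor with positive control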
An asterisk follows results filed as active.

Short forms – A = PG9 binder; B = LEDGF integ inh; C = PRMT1 FP inh; D = ABHD4 inh; E = Rev-erbA mod; F = UHRF1 MBD2 ctr; G = rCAG RNA binder; H = MBD2 inh; I = TCR CD3 inh
Cc1nnc(SCC(=O)N2c3ccccc3C(C)(c3ccc(Cl)cc3)CC2(C)C)s1 (stereo not drawn)
  A: 1.1	B: -2	C: -4	D: 4	E: 5	F: 0	G: -3	H: 0	I: -10
CCc1cccc2c1NC1(CCCC1)CC2C (stereo not drawn)
  A: -0.1	B: 1	C: -2	D: 1	E: 3	F: 0	G: 0	H: 2	I: 3
Cc1cccc(N2C(=O)CC(N3CCOCC3)C2=O)c1 (stereo not drawn)
  A: -0.2	B: 4	C: 3	D: 2	E: 5	F: -3	G: 0	H: 3	I: -3
C=C(C)c1cccc(C(C)(C)NC(=O)NCC2COCCO2)c1 (stereo not drawn)
  A: 0.4	B: -2	C: -3	D: 2	E: -5	F: -4	G: 0	H: 2	I: 3
Nc1ccccc1Oc1ncc(C(F)(F)F)cc1Cl
  A: -0.5	B: -1	C: 1	D: 0	E: 1	F: -1	G: -4	H: -1	I: 1
COc1ccccc1N/N=C/c1c(CO)cnc(C)c1O
  A: -6.2	B: 0	C: 4	D: 5	E: 7	F: -5	G: -2	H: -9	I: -1
O=C(NN=Cc1ccccc1OC(F)F)c1ccc(NS(=O)(=O)c2cccs2)cc1
  A: -1.5	B: 0	C: 0	D: 4	E: -6	F: -4	G: 27	H: 3	I: 4
COc1ccccc1CNC(=O)C/C(C)=N/NC(=O)COc1ccc(C)cc1Br
  A: -1.4	B: -1	C: 2	D: 2	E: -2	F: 1	G: 1	H: 0	I: 6
Cc1nc2sc3c(c2c(=O)n1N)CCC3
  A: 1.9	B: 1	C: 0	D: -1	E: 4	F: -1	G: -7	H: -1	I: -2
CCOC(=O)c1ccc(N2C(=O)C3CCCN3C2=S)cc1 (stereo not drawn)
  A: 1.5	B: -3	C: 8	D: -4	E: 1	F: 0	G: 7	H: -7	I: 9

Arranged by the number under Rev-erbA mod (rising): three from the list above.
SMILES,PG9 binder,LEDGF integ inh,PRMT1 FP inh,ABHD4 inh,Rev-erbA mod,MBD2 inh,TCR CD3 inh
O=C(NN=Cc1ccccc1OC(F)F)c1ccc(NS(=O)(=O)c2cccs2)cc1,-1.5,0,0,4,-6,3,4
C=C(C)c1cccc(C(C)(C)NC(=O)NCC2COCCO2)c1 (stereo not drawn),0.4,-2,-3,2,-5,2,3
Cc1nc2sc3c(c2c(=O)n1N)CCC3,1.9,1,0,-1,4,-1,-2

Some values from the entries so far.
PRMT1 FP inh with `Cc1nnc(SCC(=O)N2c3ccccc3C(C)(c3ccc(Cl)cc3)CC2(C)C)s1` (stereo not drawn) stands at -4
TCR CD3 inh with `Cc1nc2sc3c(c2c(=O)n1N)CCC3` stands at -2
PRMT1 FP inh with `Nc1ccccc1Oc1ncc(C(F)(F)F)cc1Cl` stands at 1
PRMT1 FP inh with `CCc1cccc2c1NC1(CCCC1)CC2C` (stereo not drawn) stands at -2

Grouped by structure, those above with a Cl atom.
Short forms – A = PG9 binder; B = LEDGF integ inh; C = PRMT1 FP inh; D = ABHD4 inh; E = Rev-erbA mod; F = UHRF1 MBD2 ctr; G = rCAG RNA binder; H = MBD2 inh; I = TCR CD3 inh
Cc1nnc(SCC(=O)N2c3ccccc3C(C)(c3ccc(Cl)cc3)CC2(C)C)s1 (stereo not drawn)
  A: 1.1	B: -2	C: -4	D: 4	E: 5	F: 0	G: -3	H: 0	I: -10
Nc1ccccc1Oc1ncc(C(F)(F)F)cc1Cl
  A: -0.5	B: -1	C: 1	D: 0	E: 1	F: -1	G: -4	H: -1	I: 1

New compounds follow:
Short forms – A = PG9 binder; B = LEDGF integ inh; C = PRMT1 FP inh; D = ABHD4 inh; E = Rev-erbA mod; F = UHRF1 MBD2 ctr; G = rCAG RNA binder; H = MBD2 inh; I = TCR CD3 inh
COc1ccc(S(=O)(=O)N(CCCN2CCOCC2)Cc2ccc(OC)c(OC)c2)cc1
  A: -3.1	B: -1	C: -1	D: 1	E: -6	F: 0	G: -5	H: -3	I: 0
COC(=O)C1=NN(c2ccc(C)cc2)C2C(=O)N(c3ccccc3OC)C(=O)C12 (stereo not drawn)
  A: 0.9	B: 2	C: -10	D: -3	E: -1	F: 2	G: 3	H: -5	I: 3
CC(=O)OCCc1c(C)nc2nc[nH]n2c1=O
  A: -1.4	B: 2	C: -3	D: -1	E: -3	F: 3	G: 3	H: -1	I: 4
COc1ccc(C2SC[C@@H](C(=O)O)N2C(C)=O)cc1 (stereo partly drawn)
  A: -0.1	B: 1	C: 3	D: -1	E: 0	F: -1	G: 1	H: 0	I: -1
Cc1ccc(S(=O)(=O)NC(C)(C)CN2CCC(Cc3ccccc3)CC2)cc1
  A: 0.5	B: 2	C: -2	D: 5	E: 0	F: -1	G: -10	H: 1	I: 1
COc1ccc(-c2cc(-c3n[nH]c(=S)n3-c3ccccc3OC)[nH]n2)cc1
  A: 1.3	B: 1	C: 3	D: 4	E: 1	F: 0	G: 6	H: 1	I: 5
CCN(CC)CCNc1nc2nonc2nc1NCCN(CC)CC
  A: -2.6	B: -4	C: -2	D: -2	E: 3	F: -3	G: 1	H: -3	I: -2
COc1ccccc1C(=O)NCCNC(=O)c1ccco1
  A: -1.2	B: 0	C: 0	D: 11	E: 7	F: 1	G: -2	H: 4	I: -8
O=C(C1CC(=O)N(c2ccc(Cl)cc2)C1)N1CCOCC1 (stereo not drawn)
  A: -0.4	B: 0	C: 3	D: 2	E: -4	F: 2	G: 3	H: 2	I: -6
CCCOC(=O)CSc1nc(N2CCOCC2)c2c(c1C#N)CC(C)(C)OC2
  A: -0.8	B: -2	C: 0	D: 6	E: -7	F: 0	G: -7	H: 5	I: 2
Cc1ccc(NS(=O)(=O)c2ccc(N3CCN(c4ccc(O)cc4)CC3)c([N+](=O)[O-])c2)c(C)c1
  A: 0.0	B: -1	C: 16	D: 22	E: 4	F: -2	G: 17	H: 0	I: 0
COc1ccc(-c2nnc(-c3ccc(F)cc3)o2)cc1
  A: -0.6	B: -5	C: -2	D: -3	E: -3	F: 0	G: 3	H: 1	I: 4
Cc1cc(C)c(NC(=O)C2CCCN2CCC(C)C)c(C)c1 (stereo not drawn)
  A: -1.5	B: -1	C: 0	D: 0	E: 3	F: 0	G: -9	H: 3	I: -4
CCOc1ccccc1-n1cnc(C#N)c1N
  A: 0.4	B: 6	C: -6	D: -8	E: -5	F: 5	G: -1	H: 6	I: -4
COc1ccc(Nc2nc(C)nc3c2oc2ccccc23)c(OC)c1
  A: 13*	B: -2	C: 2	D: -3	E: 7	F: -3	G: 8	H: -1	I: 8
CCc1ccc(CNCCNC(=O)c2ccco2)cc1
  A: 1.2	B: 4	C: 21*	D: -2	E: 1	F: 3	G: 26	H: -4	I: 0
CC1(C)CC(CCNC(=O)c2ccco2)CC(C)(C)N1
  A: 1.2	B: 9	C: -3	D: -2	E: -5	F: 2	G: 0	H: -8	I: 3
COc1ccc(S(=O)(=O)n2nc(OC(=O)c3cccs3)cc2NC(=O)c2cccs2)cc1
  A: -0.9	B: 4	C: 0	D: -2	E: 0	F: -9	G: 7	H: -4	I: 5
CCCCOC(=O)C1CCCC(C(=O)OCCCC)N1 (stereo not drawn)
  A: 0.7	B: -2	C: 2	D: 2	E: -4	F: 6	G: -12	H: 1	I: -6
Cc1ccc(C(=O)NC(=S)NNC(=O)c2ccccc2O)cc1
  A: -0.8	B: 5	C: 1	D: 5	E: -3	F: 0	G: 3	H: 4	I: 19*
CC1(C)c2[nH]c3ccccc3c2C[C@H]2C(=O)N(N)CC(=O)N21
  A: -1.3	B: 3	C: -4	D: -3	E: 11	F: 1	G: 5	H: 5	I: 0
CCOC(=O)c1c(N)nn(C(=O)C(C)(C)C)c1-c1ccccc1
  A: -0.4	B: 1	C: -1	D: -2	E: -1	F: -1	G: 1	H: -3	I: -3
COc1ccc(-c2ocnc2C(=O)Nc2ccccc2N2CCCCC2)cc1
  A: 0.1	B: -3	C: 1	D: 3	E: -6	F: -3	G: 3	H: -2	I: 1
Cc1cccc(Oc2coc3cc(OC(=O)c4cncc(Br)c4)ccc3c2=O)c1
  A: -0.5	B: 1	C: 2	D: 7	E: -4	F: 2	G: 8	H: -2	I: 5
COc1ccc(C(=O)COC(=O)c2nn(C)cc2Cl)cc1
  A: -1.9	B: 2	C: 1	D: 2	E: -4	F: -1	G: 3	H: -4	I: 1
Cc1cc(C)cc(N(CCC#N)C(=O)CSC2=Nc3ccccc3C3CC=NN23)c1 (stereo not drawn)
  A: -0.7	B: 3	C: 5	D: -16	E: 7	F: 0	G: -3	H: 1	I: 10
O=C1Nc2cc(C(=O)N3CCN(c4ccccn4)CC3)ccc2S/C1=C\c1ccccc1
  A: 0.1	B: -3	C: -1	D: 3	E: 2	F: -1	G: 5	H: 2	I: -6
CC1(C)Cc2c(C#N)c(SCc3ccccc3)nc(N3CCOCC3)c2CO1
  A: -0.4	B: -3	C: -4	D: -3	E: 4	F: 1	G: -3	H: -3	I: 1
O=S(=O)(Nc1cccc(C(F)(F)F)c1)c1cnc[nH]1
  A: -1.3	B: 0	C: -1	D: 0	E: 4	F: 1	G: 5	H: 1	I: 1
C=C1CCN([C@@H](CC(C)C)C(=O)N2CCOCC2)S(=O)(=O)c2ccccc21
  A: -1.7	B: -2	C: 1	D: -3	E: -5	F: -1	G: -8	H: -1	I: 4
Cc1cc(C)c([N+](=O)[O-])cc1-c1ccc(/C=N/c2c(-c3ccco3)nc3ccccn23)o1
  A: -29	B: 11	C: 49*	D: 52*	E: 2	F: 14	G: 18	H: 4	I: 6
O=C(O)COCC(=O)Nc1ccc2c(c1)ncn2CCc1ccccc1
  A: -2.2	B: -3	C: 0	D: 0	E: -2	F: -1	G: 2	H: 1	I: 6
Cc1ccc2cc(CN(Cc3ccco3)C(=O)NCc3ccccc3)c(=O)[nH]c2c1C
  A: 0.3	B: -2	C: 0	D: -1	E: -5	F: 0	G: 0	H: -1	I: 7
N#CC(c1cccc(C(F)(F)F)c1)(c1ncc(C(F)(F)F)cc1Cl)N1CCOCC1 (stereo not drawn)
  A: -0.5	B: 3	C: -2	D: -8	E: 5	F: -4	G: 0	H: 2	I: 5

High-throughput results deposited in PubChem BioAssay by several laboratories.

This is a subset; count on the stated rates, not on these rows.
